MT1-MMP act inh: MT1-MMP (human) activation inhibition. hit rate 0.061% among 360,000. P50281. HT1080 RFP-PRO-GFP cells, GFP/RFP ratio fluorescence, overnight; percent of plate control window, DMSO zero. AID 651647. GFP/RFP ratio change, % at 20 µM;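 active = GFP/RFP ratio change of at least 30% with cell ATP level not reduced by more than half and red fluorescence within 50% of control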; note: strong numbers were not always called active
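Test system: HT1080 RFP-PRO-GFP cells; Benchmarks: DMSO and RFP-L50D-GFP cell wells; Timing: cells overnight before dosing, compound overnight, 37 °C, 5% CO2; Compound: one 20 µM compound dose with 1% DMSO; Read-out: GFP/RFP fluorescence ratio.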
Rce1 inhib: yeast Ras-converting enzyme inhibition; calls only; AID 2563; Q03530; yeast membranes, quenched prenylated peptide cleavage fluorescence; hit rate 0.27% among 290,000;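 active = fall in fluorescence gain of 50% or more versus controls, with final raw signal at or below 3038400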;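 note: plate controls were neutral control wells for no effect and wells lacking membranes for full effect; tested at 10 µM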
Target sequence (Q03530 whole entry, looked up): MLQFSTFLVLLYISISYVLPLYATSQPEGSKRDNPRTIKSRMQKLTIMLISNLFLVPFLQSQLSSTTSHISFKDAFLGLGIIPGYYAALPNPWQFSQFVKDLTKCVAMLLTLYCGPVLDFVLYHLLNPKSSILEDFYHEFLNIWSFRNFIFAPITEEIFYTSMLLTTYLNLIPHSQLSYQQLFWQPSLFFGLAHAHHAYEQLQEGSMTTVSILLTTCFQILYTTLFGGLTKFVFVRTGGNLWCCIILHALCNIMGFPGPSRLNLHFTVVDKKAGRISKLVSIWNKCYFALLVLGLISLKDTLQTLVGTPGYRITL
eIF4H inh: inhibitors of RNA binding by human eIF4H | hit rate 0.94% among 290,000 | eIF4H fluorescence polarization binding assay | Q15056 | inhibition, % at 35 µM;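 active = 50% or more with normal probe brightness, or confirmed in later tests; about a fifth of its hits are not listed in these tables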;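 note: calls also rest on retests at 20 µM and on dose response follow-up; 0% = protein and probe with vehicle and 100% = probe without protein; strong numbers were not always called active; many hits fall short of the cut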
UUG fidelity: alters start codon recognition fidelity in yeast; AID 602363; activity score, % at 18.7 µM; S. cerevisiae UUG-firefly luciferase reporter, luminescence/redox ratio; hit rate 0.13% among 350,000;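 active = replicate mean at a twofold rise or more, about +100% in these data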;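 note: firefly luciferase made from a UUG start codon reports start codon fidelity; reporter light over untreated wells divided by growth signal over untreated wells; some hits fall short of that in this replicate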
PABP FP inh: PABP-poly(A) binding inhibition | AID 2014 | PABP-poly(A) RNA binding, fluorescence polarization | inhibition, % at 35 µM | P11940 | hit rate 1% among 290,000;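 active = 50% or more with normal probe brightness, or confirmed in later tests; about a fifth of its hits are not listed in these tables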;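 note: calls also rest on retests at 20 µM and on dose response follow-up; controls were probe without protein and protein plus probe with vehicle; some compounds called inactive have numbers as strong as hits; many hits fall short of the cut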
Target sequence (P11940 whole entry, looked up): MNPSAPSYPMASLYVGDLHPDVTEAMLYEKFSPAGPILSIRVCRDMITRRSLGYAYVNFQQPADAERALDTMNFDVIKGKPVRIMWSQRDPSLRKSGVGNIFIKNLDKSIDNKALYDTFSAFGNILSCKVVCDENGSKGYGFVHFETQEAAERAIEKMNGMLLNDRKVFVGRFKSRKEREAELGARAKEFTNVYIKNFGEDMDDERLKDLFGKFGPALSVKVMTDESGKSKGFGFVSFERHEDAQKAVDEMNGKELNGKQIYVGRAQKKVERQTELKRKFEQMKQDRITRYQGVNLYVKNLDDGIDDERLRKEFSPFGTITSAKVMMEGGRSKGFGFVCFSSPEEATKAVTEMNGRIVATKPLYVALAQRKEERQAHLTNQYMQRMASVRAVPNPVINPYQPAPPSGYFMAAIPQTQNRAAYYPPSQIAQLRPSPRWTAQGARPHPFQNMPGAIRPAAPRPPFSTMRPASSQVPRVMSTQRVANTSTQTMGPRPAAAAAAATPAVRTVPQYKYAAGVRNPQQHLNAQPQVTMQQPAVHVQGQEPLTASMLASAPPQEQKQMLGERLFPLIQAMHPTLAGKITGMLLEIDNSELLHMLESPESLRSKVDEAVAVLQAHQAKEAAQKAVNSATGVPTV
CSC inhib: blocks cancer stem cells; cancer stem cell-like cells viability, luminescence; inhibition, % at 7.5 µM; hit rate 1.1% among 300,000;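 active = mean at 75% or more and at least half the replicates too; tested in HMLE shEcad cells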;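 note: 0% = median of negative and 100% = median of positive control wells; the first replicate is given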
HIV Env fusion: HIV envelope-mediated fusion inhibition. inhibition, % at 12.3 µM. HeLa-JRFL Env/CEM21 cell fusion, luciferase. hit rate 1.1% among 360,000;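 active = mean replicate inhibition score of at least 50 and every replicate individually at or above 50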;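 note: 0% = plate neutral controls and 100% = maraviroc near 300 nM; one replicate is shown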
MT1-MMP act inh RFP: further read-out of MT1-MMP act inh, marked with its call; RFP signal change, %; measured here: RFP expression control read;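 0 = vehicle wells; hits needed this value within 50% of zero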
* hit, by the source's call; i = inactive; nt = not tested or not shown. A portion of the library; rates above refer to the full screens.

SMILES	MT1-MMP act inh	MT1-MMP act inh RFP	Rce1 inhib	eIF4H inh	UUG fidelity	PABP FP inh	CSC inhib	HIV Env fusion
Cc1ccc(C(=O)NCCC(=O)Nc2ccccc2C)cc1	-2	-1	i	-4	0	-9	8	3
N#CCC(=O)N/N=C\c1cccc(OC/C=C/c2ccccc2)c1	-2	3	i	4	-16	-9	5	5
Cc1ccc(NC(=O)c2cc(-c3ccc(C)c(C)c3O)n[nH]2)cc1C	4	2	i	-8	-14	-34	14	-10
CC1=CC(C)(C)Nc2ccc(OC(=O)CN3C(=O)CCC3=O)cc21	-167	15	i	8	-18	10	nt	nt
O=C(Nc1ccc(NC(=O)c2cccs2)cc1)c1ccc2c(c1)OCCO2	-1	-3	i	2	nt	-8	14	9
O=C(NCC1CCCO1)c1ccc(Br)o1 (stereo unspecified)	3	7	i	6	-16	-7	-4	8
O=C(c1ccco1)N1CCN(Cc2cc(=O)c(OCc3cccc(F)c3)co2)CC1	2	1	i	nt	2	nt	-4	-4
CCN(CC)S(=O)(=O)c1ccc(C(=O)Nc2ccc3c(c2)OCCO3)cc1	0	2	i	7	-3	1	-13	22
CCOC(=O)c1cc(-c2csc(COc3ccccc3Cl)n2)on1	3	4	i	-13	nt	-8	-23	0
CCCCOc1ccc(S(N)(=O)=O)cc1	-1	1	i	-2	nt	2	-10	11
CC(C)C(=O)Nc1ccc(NC(=O)CCc2ccccc2)cn1	3	6	i	2	nt	9	-11	1
CCn1c(N2CCN(S(=O)(=O)c3ccc(OC)cc3)CC2)nc2ccccc21	6	-15	i	-4	-5	7	-11	3
CC1CC(C)CN(CCCNC(=O)CCNC(=O)Cn2cnc3ccccc3c2=O)C1 (stereo unspecified)	-2	2	i	6	-16	4	-7	-10
COc1ccccc1CC(=O)Nc1cccc(C)n1	3	2	i	-8	-4	-3	-9	7
O=C1NCCCN1Cc1ccc(Cl)cc1	-1	-1	i	-8	-11	3	4	-6
Cn1c(CCNC(=O)c2ccccc2F)nnc1SCc1nc2ccccc2c(=O)[nH]1	-1	1	i	-8	1	-6	-6	nt
Cc1ccc(C2/C(=C(/O)c3cnn(-c4ccccc4)c3C)C(=O)C(=O)N2CCCN2CCOCC2)o1 (stereo unspecified)	nt	nt	i	15	nt	11	-25	nt
CCCCn1nnc(NC(=O)Cc2ccc(Cl)cc2)n1	0	-2	i	8	3	9	-5	nt
COc1ccc2cc(CN(C(=O)Nc3ccccc3OC)C3CCCC3)c(=O)[nH]c2c1	1	4	i	1	nt	1	-3	nt
Cc1ccccc1C(=O)Nc1ccc2c(c1)OCCO2	3	4	i	0	-52	3	4	-10
CCN1CCc2c(sc(NC(=O)C3CCCCC3)c2C(=O)OC)C1	-4	-4	i	-11	8	0	12	9
Cc1cc(C)n(CC(=O)NCc2ccccc2)c(=O)c1C#N	3	6	i	0	-6	-8	3	9
COc1ccccc1NC(=O)Cc1nnc(SCC(=O)NC2CCCCC2C)n1C (stereo unspecified)	1	2	i	-8	-4	3	0	2
CC(CN(C)Cc1nc(Cc2cccc(C(F)(F)F)c2)no1)CN1CCCC1 (stereo unspecified)	2	-5	i	-7	nt	-13	29	2
O=C(O)CCN1C(=O)c2ccc(NC(=O)Cc3ccc(Cl)cc3)cc2C1=O	1	-2	i	-7	nt	4	-12	9
CCOC(=O)CNC(=O)C1Cc2ccccc2CN1S(=O)(=O)c1cccs1 (stereo unspecified)	2	6	i	-4	nt	2	-6	3
Cc1ccc(C)n1-c1ncn[nH]1	0	-1	i	-10	-23	-1	-1	-26
Cc1csc2nc(CNS(=O)(=O)c3ccc4c(c3)CCCC4)cn12	-1	-11	i	0	-21	-3	-16	-18
Cc1ccccc1OCC(=O)N/N=C/c1ccco1	-1	-7	i	0	-14	6	4	-46
CC1CN(c2ccccc2)CCN1Cc1nc(Cc2ccccc2)no1 (stereo unspecified)	-1	-2	i	-2	-7	1	-5	-2
CCCC[C@@H]1CNCCN1CCCc1cc(OC)c(OC)c(OC)c1	-2	-1	i	nt	7	nt	-25	-11
COc1ccccc1NC(=O)Oc1ccc(C(C)=O)cc1	2	1	i	-12	23	-8	-5	59*
O=C(CSc1nc2ccccc2o1)Nc1nc2c(s1)CCCC2	-8	-23	nt	nt	-45	nt	nt	-21
CC(=O)NC1CC2CCCC(C1)N2C(=O)Nc1cccc(C(C)=O)c1 (stereo unspecified)	1	-2	nt	nt	-11	nt	nt	-18
Cc1nn(C)cc1CNC(=O)C1C2CCC(C2)C1C(=O)O (stereo unspecified)	nt	nt	i	-15	nt	-7	nt	4
CCCc1nc2sc3c(SCC(=O)NCc4ccco4)ncnc3c2c2c1CCC2	-4	-3	i	78*	-22	58*	nt	-26
COc1ccc(N2CCOCC2)c(NC(=O)c2cccnc2)c1	-9	-5	i	-1	-9	-2	0	21
CC(C)N1CC(C(=O)O)CC1=O (stereo unspecified)	-5	1	i	1	-15	4	7	-128
O=C(O)c1nccnc1C(=O)Nc1ccc(Cl)cc1Cl	-3	-2	i	1	-11	0	-4	-5
CCN(CC)CCn1c(=N)n(CC(O)COc2ccccc2)c2ccccc21 (stereo unspecified)	0	3	i	5	-7	21	-3	14
CCc1nn(CC(=O)N2CCC(C(N)=O)CC2)c(=O)c2cc3occc3n12	3	0	i	-10	-12	5	-3	9
Cc1ccc(CN2CCN(Cc3ccccc3)C(CCO)C2)s1 (stereo unspecified)	-3	2	i	-2	nt	-4	-16	-3
CCCC(=O)Nc1cccc(Oc2ccc3c(c2)C(=O)NC3=O)c1	-1	1	i	2	-8	2	-5	-27
Cc1ccc(C(=O)COC(=O)CNS(=O)(=O)c2ccccc2)cc1[N+](=O)[O-]	1	7	i	4	-11	8	-8	nt
COc1ccc(S(=O)(=O)NCCSCc2ccccc2C)cc1Br	-1	-4	i	1	-21	1	8	7
CC(=O)c1c(C)c2c(n1CCN(C)C)CCCC2	2	3	i	1	nt	15	2	nt
Cc1cc(N)n2nc(-c3ccc(C(C)(C)C)cc3)cc2n1	2	-4	i	-17	-29	9	55	nt
O=C(CSc1nc2ncccc2[nH]1)Nc1c(F)cc(F)cc1Br	3	-1	i	-5	-5	6	-16	3
O=C(NNC1CC(c2ccccc2)=NN1C(=O)c1ccccc1)c1ccccc1 (stereo unspecified)	1	2	i	-7	14	-9	-8	16
N#Cc1sc2nc(C3CC3)cc(-c3ccc(Cl)cc3)c2c1N	-5	-3	i	-2	3	-6	-8	-14
(next part)
SMILES	MT1-MMP act inh	MT1-MMP act inh RFP	Rce1 inhib	eIF4H inh	UUG fidelity	PABP FP inh	CSC inhib	HIV Env fusion
CN[C@@H](CO)C(=O)NC[C@H]1O[C@@H](n2cnc3c(=O)[nH]c(N)nc32)[C@H](O)[C@@H]1O	1	6	nt	nt	-7	nt	nt	16
COc1cccc(N2C(=O)C3C(C2=O)C3(c2ccccc2)c2ccccc2)c1 (stereo unspecified)	0	-8	i	2	4	-2	-3	8
Cc1ccc(OCC(=O)NNC(=O)c2ccccc2OCc2c(C)noc2C)cc1	2	-1	i	nt	-15	nt	-2	nt
Cc1cc(C)n(CCn2nc(C)cc2C)n1	-2	0	i	-3	-12	-10	9	nt
NC(=O)c1cc2cc(Cc3ccccc3Cl)ccc2oc1=O	10	5	i	5	2	4	5	-8
Cn1c(=O)[nH]c(=O)c2c1nc(SCc1ccccc1Cl)n2CC(N)=O	0	-2	i	2	-38	6	-16	-13
CC(C)CCC(C(=O)O)C(C)CC(=O)NC1CCCCC1 (stereo unspecified)	7	7	i	0	8	-4	19	-47
COC(=O)c1cnn(-c2ccc(C)c(C)c2)c1-n1cccc1	-5	-1	i	11	-12	3	nt	15
CCOCCCn1c(=NC(=O)c2ccc(OC)c(OC)c2)c(C#N)cc2c(=O)n3cccc(C)c3nc21	nt	nt	i	-9	nt	-3	-3	nt
CC(C(=O)Nc1ccc(F)cc1Cl)N(C)CCOc1ccccc1 (stereo unspecified)	-5	-1	i	-9	-9	-16	-5	3
O=C(Cc1ccccc1)NCc1n[nH]c(=S)n1-c1ccccc1	0	4	i	-5	nt	0	-8	11
O=C(NC1CCCCCC1)C1c2ccccc2C(=O)N1Cc1ccco1 (stereo unspecified)	-4	-1	i	-12	-17	-5	-17	19
CCOc1ncccc1C(=O)Nc1ccc(F)c(Cl)c1	0	5	i	3	nt	-4	-3	-1
O=C(CN(Cc1ccco1)C(=O)Cn1nnc(-c2cccs2)n1)NCc1ccccc1	-2	3	i	0	-10	10	-9	nt
O=C(NCCC1=CCCCC1)c1ccc(-n2cncn2)cc1	3	0	nt	nt	-5	nt	-11	-35
Cc1nnc2sc(SCC(=O)N3CCC(C)CC3)nn2c1=O	0	4	i	-3	-17	2	11	9
C[C@@H]1CCC2[C@](C)(CO)[C@@H](O)CC[C@]2(C)[C@@]12CC[C@@](CO)(CC(=O)O)O2 (stereo partly specified)	-3	4	i	-11	-1	-6	-6	12
COC(=O)c1ccc(CSc2nnc(Nc3ccc(OC)cc3)s2)o1	-2	-6	i	6	-12	4	-3	nt
CCN(Cc1ccccc1)C(=O)COC(=O)c1cnc(C)cn1	2	4	i	4	-6	-13	-6	-28
CCN(CC)CCCN(C(=O)c1ccccc1F)c1nc(-c2ccc(OC)cc2)cs1	-7	-2	i	-7	-4	-4	4	19
O=c1cc2ncc(-c3[nH]ncc3[N+](=O)[O-])cn2[nH]1	1	5	i	5	-11	9	-5	-6
CCc1nn(CC(=O)NCCCN2CCOCC2)c(=O)c2cc3cc(F)ccc3n12	0	4	i	1	9	2	5	9
CC1(C)Cc2cccc(C(=O)NC3CCN(Cc4ccccc4)CC3)c2O1	-1	0	nt	-4	0	11	-5	-5
CCN1C(=O)[C@H]2[C@@H](c3ccc(-c4ccc5c(c4)OCO5)c(OC)c3)N[C@@](C)(C(=O)OC)[C@H]2C1=O	-2	3	nt	nt	-30	nt	nt	-22
Cc1nc2sccn2c1-c1csc(NCc2ccccc2)n1	12	-20	nt	3	-16	11	-7	95*
CN(C1CCCCC1)S(=O)(=O)c1ccc(=S)[nH]c1	1	0	nt	nt	-12	nt	-3	nt
CC(=O)N/C(=C/c1ccc(Cl)cc1)C(=O)NCCc1c[nH]c2ccccc12	1	0	i	-6	nt	2	-8	nt
CCc1nc2cc3sc(CC)nc3cc2s1	2	2	i	-15	-7	-1	-10	-82
COc1ccc(CNC(=O)C2CCN(C(=O)c3cccc(Cl)c3)CC2)cc1	0	1	i	-3	8	-8	-1	nt
NNC(=O)CSc1ncc(-c2ccccc2)[nH]1	1	2	i	2	nt	-7	-27	-1
O=C(Cn1cc(C(F)(F)F)ccc1=O)N/N=C/c1ccccc1	2	0	i	-1	nt	-15	-1	-3
CC(C)c1ccc(C2=NN(c3ccccc3)C(=O)CC2)cc1	3	-1	i	-4	nt	37	-15	nt
CC(C)(C)NC(=O)c1ccc(COCC(F)(F)F)o1	-6	1	i	-7	-17	4	-2	nt
C#CCOCCOCCOCCNc1nc(N2CCN(C(=O)[C@H](CC(N)=O)n3cc([C@@H](N)CC(N)=O)nn3)CC2)nc(N2CCN(C(=O)[C@H](CC(N)=O)n3cc([C@@H](N)CC(N)=O)nn3)CC2)n1	0	1	nt	nt	-4	nt	nt	7
O=C(O)CCCC(=O)Nc1cccc(-c2nc3ccccc3[nH]2)c1	6	4	i	-5	-12	1	1	-27

Structures listed above printed as active in HIV Env fusion.
SMILES	MT1-MMP act inh	MT1-MMP act inh RFP	Rce1 inhib	UUG fidelity	HIV Env fusion
COc1ccccc1NC(=O)Oc1ccc(C(C)=O)cc1	2	1	i	23	59*
Cc1nc2sccn2c1-c1csc(NCc2ccccc2)n1	12	-20	nt	-16	95*

Assay outcomes deposited in PubChem BioAssay by several laboratories.
